# Tgondii IFNg = blocks Toxoplasma gondii growth in the presence of IFN-gamma | Toxoplasma gondii growth in IFN-gamma-treated host cells; stronger effect = lower value; reference of the scale not given here | activity change, negative = inhibition, %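 (about 20 µM by stock and volumes)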 | 3.8% of 69,000 active | AID 1259416;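 active means below -70%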;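 further: host cells are HeLa cells infected with Toxoplasma gondii; parasite growth read as luciferase light; one replicate is shown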
# Active calls of the source: *; i = inactive.
SMILES	Tgondii IFNg
Cc1ccc(-c2ccc[nH]c2=O)c(-n2cccn2)c1	2.8
O=C(CSC12CC3CC(CC(C3)C1)C2)N1CCn2cncc2C1	-11.9
COc1ccc2[nH]cc(CCNc3ccc(S(=O)(=O)c4ccccc4)nn3)c2c1	14.4
COc1ccc(-c2nnc(-c3nc(Nc4c(Cl)cc(OC)cc4OC)c4ccccc4n3)o2)cc1	64.7
Cc1nnc2c(N3CC=C(c4ccccc4)CC3)nc3ccccc3n12	12.8
CCS(=O)(=O)N1CC2(CCN(C(=O)[C@H]3CCCO3)CC2)c2ccccc21	1.6
CC(C)(C#N)c1ccc(N2C(=O)OCc3cnc4ccc(-c5cnc6ccccc6c5)cc4c32)cc1	-85.0*
COc1ccccc1OC1CN(C(=O)c2cnn3c2CCCC3)C1	44.4
CC(=O)N1[C@@H](CO)[C@@H](c2ccccc2)[C@@H]1CNC(=O)CN1CCOCC1	-20.5
CN(c1cncc(C(=O)NCCC2=CCCCC2)c1)S(=O)(=O)c1ccccc1	13.2
CCOC(=O)c1c(C)n(S(=O)(=O)CC)c2cc(OC)c(NS(=O)(=O)CC)cc12	-35.3
COc1ccc(-c2ccc[nH]c2=O)cn1	-1.6
CN1CCN(C(=O)C[C@H]2CC[C@H]3[C@@H](COc4ccc(NC(=O)c5cccs5)cc4C(=O)N3C)O2)CC1	19.7
O=C(Cn1ncc2c(N3CCN(c4ccccc4)CC3)ncnc21)NCCC1=CCCCC1	-1.9
CC(C)CC(N)c1nnc2n1CCNCC2 (stereo not given)	-0.4
Cc1ccc(N2CCO[C@H]3CN(C(=O)c4ccoc4C)CC[C@@H]3C2)nn1	2.9
CCCN1C[C@@H]2Cc3c(c(-c4ccccc4)nn3C)[C@H]2C1	3.3
Cc1ccc(C(=O)NCCc2sc(-c3ccc(F)cc3)nc2C)cc1C	-56.6
COCCN1C(=O)CC[C@H]2[C@H]1CCN2C(=O)N(C)C	68.0
CN(C)C(=O)N1CC2(CCN(S(=O)(=O)N(C)C)CC2)C2(CCN(C)C2=O)C1 (stereo not given)	-2.8

# 4 entries out of the list, ordered by SMILES length, descending.
SMILES	Tgondii IFNg
CN1CCN(C(=O)C[C@H]2CC[C@H]3[C@@H](COc4ccc(NC(=O)c5cccs5)cc4C(=O)N3C)O2)CC1	19.7
CCS(=O)(=O)N1CC2(CCN(C(=O)[C@H]3CCCO3)CC2)c2ccccc21	1.6
COc1ccccc1OC1CN(C(=O)c2cnn3c2CCCC3)C1	44.4
CC(C)CC(N)c1nnc2n1CCNCC2 (stereo not given)	-0.4

# Further records follow.
SMILES	Tgondii IFNg
CN1C(=O)c2cc(NC(=O)C3CCOCC3)ccc2OC[C@H]2O[C@H](CC(=O)NCC3CCCCC3)CC[C@H]21	3.2
CN1CCC(N2CCC(C(=O)N(C)C)CC2)CC1	-12.5
O=C(Nc1ccccc1Nc1cc(-c2ccccc2)nn1-c1ccccc1)c1ccccc1	84.1
Cn1cc(S(=O)(=O)N2CCN(Cc3ccccc3Cl)CC2)c(=O)n(C)c1=O	23.8
COc1ccc(NC(=O)N(C)C[C@H]2OCCCC[C@@H](C)Oc3ccc(NC(=O)c4ccncc4)cc3C(=O)N([C@H](C)CO)C[C@@H]2C)cc1	i
Cc1cc(NC(=O)c2nc(Nc3ccc(Cl)cc3)c3ccccc3n2)no1	27.5
CC(C)c1cc(C(=O)N(Cc2ccsc2)CC2CCCO2)no1 (stereo not given)	-6.5
CCOC(=O)c1nc(N(CC)c2ccc(CC)cc2)c2ccccc2n1	-49.5
Cc1ccc(Nc2nc(-c3nnc(-c4ccccc4)o3)nc3ccccc23)cc1Cl	5.2
CSc1ccc(CNc2nc(-c3nnc(-c4ccc(F)cc4)o3)nc3ccccc23)cc1	-13.3
FC(F)(F)C1(c2n[nH]c(Cc3ccccc3)n2)CC1	-6.8
S=C(NCCCn1ccnc1)Nc1cc(Cl)ccc1Cl	30.1
C[C@@H]1CN([C@@H](C)CO)C(=O)CCCn2cc(nn2)CO[C@@H]1CN(C)C(=O)CCC(F)(F)F	331.4
CN(C)C1CCN(Cc2ccoc2)C(C(=O)O)C1 (stereo not given)	-14.4
COc1ccccc1OC1CN(C(=O)c2ccc(-n3cnnc3)cc2)C1	-0.4
O=C(c1ccoc1)N1CC[C@@H]2CN(c3ncccn3)CCO[C@H]2C1	0.2
CN(Cc1cccc2ncccc12)CC1CCOC1 (stereo not given)	-2.1
O=C(c1cnc(-c2ccncc2)nc1)N1CCOC(CCCc2ccccc2)C1 (stereo not given)	-14.1
Fc1ccc(C(F)(F)F)cc1CN1CCCC1c1ccccn1 (stereo not given)	15.3
O=C(Nc1ccccc1OCC1CCCCO1)C1CC(=O)N(c2cccc(F)c2)C1 (stereo not given)	11.0

# For convenience, part of the list above.
SMILES	Tgondii IFNg
CN(Cc1cccc2ncccc12)CC1CCOC1 (stereo not given)	-2.1
O=C(c1cnc(-c2ccncc2)nc1)N1CCOC(CCCc2ccccc2)C1 (stereo not given)	-14.1
Fc1ccc(C(F)(F)F)cc1CN1CCCC1c1ccccn1 (stereo not given)	15.3
O=C(Nc1ccccc1OCC1CCCCO1)C1CC(=O)N(c2cccc(F)c2)C1 (stereo not given)	11.0

# Carrying on:
SMILES	Tgondii IFNg
COc1ccc2c3c([nH]c2c1)[C@@H](CO)N(C(=O)Nc1ccc(F)cc1)CC31CCN(S(=O)(=O)c2cn(C)cn2)CC1	17.0
CCn1nc(C)c(NC(=O)CNCC2(C)CC(C)=NO2)c1C (stereo not given)	88.1
COc1ccc(-c2nc3c4c5c(sc4ncn3n2)CCCC5)cc1OC	-1.5
CCC(=O)O[C@@H](OP(=O)(CCCCc1ccccc1)CC(=O)N1C[C@H](C2CCCCC2)C[C@H]1C(=O)O)C(C)C (stereo not given in full)	14.4
CCn1cc(CN2CCCC(CNC(=O)c3cccc(OC)c3OC)C2)cn1 (stereo not given)	-0.7
COc1ccc(NC(=O)N2CCc3nc(-c4ccc(C)cc4)sc3C2)c(OC)c1	1.8
C=CCNC(=O)c1ccc(C(F)(F)F)nc1C	16.9
CO[C@@H]1CN(C)C(=O)c2cc(NC(=O)c3ccc(F)cc3)ccc2OC[C@@H](C)N(C(=O)CC2CC2)C[C@@H]1C	46.3
O=C(c1cn(-c2ccccc2)nn1)N(Cc1ccsc1)CC1CCCO1 (stereo not given)	1.8
Cc1ccc(CNC(=O)C2CCN(S(=O)(=O)c3ccc4[nH]c(=O)ccc4c3)CC2)cc1	i
N#Cc1cccc(NC2COC3(CCN(C(=O)c4ccoc4)C3)C2)n1 (stereo not given)	2.3
Nc1ccccc1SC1CC(=O)N(c2ccc3c(c2)OCO3)C1=O (stereo not given)	13.1
CC(C)(C)c1ccc(-c2cc(NC(=S)NC(=O)c3ccccc3)n[nH]2)cc1	-57.3
COc1ccc(-c2csc(NC(=O)c3ccccc3C)n2)cc1	-6.6
c1cnc(Nc2cc(CCC3CCNCC3)ccn2)cn1	-4.2
Cc1cccc(-c2nnn3c2COC(CNC(=O)[C@H]2CCCO2)C3)c1 (stereo not given in full)	-3.5
N#Cc1ccc(C(=O)N2CCn3cc(Cn4cccn4)nc3C2)cc1	0.1
O=C(C1CCOCC1)N1CC(=O)N2[C@@H](CO)[C@@H](c3ccc(C#CC4CCCCC4)cc3)[C@@H]2C1	-9.8
Cc1ccc2c(c1C)-n1cccc1C1(CCN(C(=O)c3ccco3)CC1)N2	7.3
CCN(Cc1ccncc1)C(=O)c1cc(NC(C)=O)ccc1Cl	77.3

# (next part)
Molecule | Tgondii IFNg
CO[C@H](CN(C)S(=O)(=O)c1ccc(C)cc1)[C@@H](C)CN([C@@H](C)CO)S(=O)(=O)c1cccc(Cl)c1 | 16.5
CCCN1C(=O)CCc2c(C)nc(C3CCN(S(=O)(=O)c4c(C)noc4C)CC3)nc21 | -29.1
CNC[C@H]1OCc2cn(nn2)CCCC(=O)N([C@@H](C)CO)C[C@@H]1C | 113.1
Cc1cccc(NC(=O)c2nnn(Cc3nc(-c4ccccc4)oc3C)c2C)c1C | 73.1
CC1(C)CC(=O)C(C2=NC(C)(C)Cc3ccccc32)=C(O)C1 | 20.4
CC1CCCN(C(=O)C2CCN(Cc3ccc4c(c3)OCO4)CC2)C1 (stereo not given) | -13.1
O=C(Nc1ccc(OC(F)(F)F)cc1)c1cscc1Sc1ccc(Cl)cc1 | -52.5
c1ccc2c(c1)n1cnnc1c1nncn21 | 0.8
COCCN1C[C@]23CN(C(=O)COC)C[C@@H](C[C@H]2S1(=O)=O)O3 | -16.1
Cc1ccccc1S(=O)(=O)N1CCCCN2[C@H](C1)[C@H](c1ccc(C#CCN(C)C)cc1)[C@@H]2CO | -32.5
COc1ccc(C(=O)NN2C(=O)C3C4C=CC(C4)C3C2=O)cc1OC (stereo not given) | 10.1
CC(CNC(=O)Cn1c(=O)ccc2cc(S(=O)(=O)N3CCCC3)ccc21)c1ccccc1 (stereo not given) | 88.1
C[C@@H]1CC=CC[C@H](c2cccc(Cl)c2)NC(=O)[C@@H](Cc2ccccc2)N(C)C(=O)c2ccccc2O1 (mixture of isomers) | -67.5
Cc1ccc(Nc2nc(C(=O)Nc3ccc(C)cc3C)nc3ccccc23)cc1 | 92.4
O=C(c1cnc[nH]1)N1CCC2(CC(Oc3cccnc3)CO2)C1 (stereo not given) | 2.3
CCCN1CCC(CNC(=O)c2cnn(-c3ccc(F)cc3)c2)CC1 | -32.9
COc1ccc(Cl)cc1C(=O)NCCc1sc(-c2cccc(F)c2)nc1C | 3.9
CN1CCCC2(CCN(Cc3ccccc3C(=O)O)C2)C1=O (stereo not given) | 14.5
CCN1C(=O)CCc2cc(NC(=O)CCCc3ccccc3)ccc21 | 19.7
CCCCCNCC(N)=O | 6.7
O=C(O)c1cccnc1CN1CCCC(Oc2ccc(F)cc2)C1 (stereo not given) | -35.2
CC(C)c1ccc(NC2CCCN(C(=O)Cc3c[nH]c(=O)[nH]c3=O)C2)cc1 (stereo not given) | -7.4
CO[C@H]1CN(C)C(=O)c2cc(NC(=O)Nc3cc(F)ccc3F)ccc2OC[C@H](C)NC[C@@H]1C | -8.7
CSc1nn(-c2c(Cl)cc(C(F)(F)F)cc2Cl)c(N)c1C#N | -100.6*
Cc1nn(C)cc1-c1ccnc(NCCCn2ccnc2C(C)C)n1 | -1.3
CCOC(=O)c1nc(N2CCc3ccccc32)c2ccccc2n1 | 90.8
CO[C@@H]1CN(C)C(=O)c2cc(NS(=O)(=O)c3ccc(Cl)cc3)ccc2OC[C@@H](C)N(C(=O)NC(C)C)C[C@@H]1C | 128.1
Nc1nc(N)c(S(=O)(=O)c2ccccc2)c(NC2CCCCC2)n1 | 10.5
Cc1oncc1C(=O)N1CCC2OCCCC2(COCCN(C)C)C1 (stereo not given) | -5.0
Cc1csc(C(C)NC(=O)CCC2(Cc3ccc4ccccc4c3)CCC(=O)N2)n1 (stereo not given) | 5.6
Cc1ccc(NC(=O)CC(=O)N(CC#Cc2ccccc2)C2CC2)cc1 | -35.4
Cn1c(C(=O)N2CCCn3cncc3C2)cc2c(Cl)cccc21 | 2.4
Cc1cc2c(C)nc3ccc(C(=O)O)cc3c2o1 | -32.7
Cn1nc(CC2CCN(C(=O)c3cccc(=O)[nH]3)CC2)n(-c2ccccc2)c1=O | 28.3
O=C(CN1C(=O)CCc2cc(S(=O)(=O)N3CCCC3)ccc21)Nc1ccc(OC(F)(F)F)cc1 | -24.7
O=C(Nc1cnn(C23CC4CC(CC(C4)C2)C3)c1)C1CC(c2c(F)cccc2Cl)=NO1 (stereo not given) | -83.6*
CCCc1nc(C(=O)NCc2cccnc2-n2cncn2)cs1 | 14.0
Cc1nccn1C(C(=O)O)c1ccccc1 (stereo not given) | 33.5
CS(=O)(=O)c1ccc(CN2CCN(c3ncc(F)cn3)CC2)cc1 | -11.2
COCCN1C(=O)CCc2cc(NS(=O)(=O)c3ccc(F)cc3)ccc21 | 24.2
COc1ccc2c3c([nH]c2c1)[C@H](CO)N(C(=O)C1CCCCC1)CC31CN(S(C)(=O)=O)C1 | -32.2
CCc1ccc(-c2ccc(C(=O)Nc3c(OC)cccc3OC)cc2)cc1 | 19.6
C[C@@H]1CCCCO[C@H](CN(C)C(=O)c2ccncc2)[C@H](C)CN([C@@H](C)CO)C(=O)c2cc(NS(=O)(=O)c3cccs3)ccc2O1 | 8.1
C[C@@H]1CC[C@H]2[C@@H](C)C(O)O[C@@H]3O[C@]4(C)CC[C@@H]1[C@]32OO4 (stereo not given in full) | -81.5*
Fc1ccc(OCCN2CCCCC2CCN2CCOCC2)cc1 (stereo not given) | 19.9
CO[C@H]1CN(C)C(=O)c2cc(NC(=O)C3CC3)ccc2OC[C@@H](C)N(Cc2cc(F)ccc2F)C[C@@H]1C | 48.0
C[C@H]1CN([C@@H](C)CO)C(=O)Cc2cc(NC(=O)Cn3cnnn3)ccc2O[C@H]1CN(C)S(=O)(=O)c1ccc(Cl)cc1 | 9.0
COc1ccc(NC(=O)COc2nc(C)nc3ccccc23)c(OC)c1 | -6.7
OC[C@@H]1Nc2ccc(-c3cccc(F)c3)cc2[C@@H]2[C@H]1CCN2Cc1ccc(F)cc1 | -39.3
CCOC(=O)CN1C(=N)N(c2nc(SC)nc(N(C)C)n2)CC1=O | 66.1

# Additional compounds follow.
Molecule | Tgondii IFNg
CC(C)c1ncc(C(=O)N2CCN(C)C3(CCN(C)CC3)C2)c(=O)[nH]1 | 86.4
CCc1nnc(CN2CCCN(Cc3ccc(F)cc3)C(C(C)C)C2)o1 (stereo not given) | 1.5
O=C(c1cc2sccc2[nH]1)N1CCC(Cn2cc(CCO)nn2)CC1 | 3.3
OCCCNC(c1ccccc1)(c1ccccc1)c1ccccc1 | -36.9
Cc1nc(OCC(=O)Nc2cccc(Br)c2)c2ccccc2n1 | -14.6
O=C(c1cccc(Cl)c1)N1CC[C@H]2[C@@H]1CCN2CC1CC1 | 0.8
Fc1cnc(N2C[C@H](Oc3ncccc3F)[C@@H]3OCCC[C@@H]32)nc1 | -17.8
O=C(Oc1ccc(F)cc1)C1CCN(c2ccc(C(F)(F)F)cn2)CC1 | 134.3
CCOCC1c2c(ncn2C)CCN1Cc1nccn1C (stereo not given) | 6.9
CCn1cc(CN2CCCC2c2cc(C(C)C)no2)c2cc(OC)ccc21 (stereo not given) | 1.1

# Screens deposited in PubChem BioAssay by Broad Institute.

# These rows are one share of the data; count on the stated rates, not on these rows.
